total CFTR: compounds raising F508del-CFTR protein level – cell-based, HeLa F508del-CFTR, immunofluorescence, viability, primary screen (AID 1224863) | HeLa F508del-CFTR, immunofluorescence total CFTR, 24 h; by the record results were divided by relative cell number; some inactives read as strong as hits | calls, or highest fold increase where a dose series was run | 10,000 compounds, 0.1% hits; in the data nearly all actives have a first-pass fold increase above 1.5; a few of its hits are not listed in these tables;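 also: total CFTR protein by anti-CFTR immunofluorescence in fixed cells; first pass at 25 µM or 10 µg/mL by library and series up to twice that; 1 = untreated cells; first-pass hits also needed half or more of the cells alive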
total CFTR fold 25 µM: recorded beside total CFTR, whose call it bears; fold increase; measured here: primary screen single dose 25 uM; library dosed in µM
total CFTR fold 10 ug/mL: second read-out of total CFTR, no call of its own (marks repeat the call); fold increase; measured here: primary screen 10 ug/mL
total CFTR viability 25 µM: also measured in total CFTR; calls as there; viability, %; measured here: primary viability 25 uM; library dosed in µM;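 0% = killed and 100% = untreated cells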
total CFTR viability 10 ug/mL: further read-out of total CFTR, marked with its call; viability, %; measured here: primary viability 10 ug/mL;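 0% = killed and 100% = untreated cells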
Active calls of the source: *; i = inactive; / = not tested or not shown; & = joins results of further samples. Only part of the results is shown, so the mix of outcomes need not match the whole.

SMILES	total CFTR	total CFTR fold 10 ug/mL	total CFTR viability 10 ug/mL	others
CC1CC(=O)Nc2ccccc2N1C(=O)CN(C)Cn1nnc2ccccc2c1=O (centres undefined)	i	0.98	94
COC(=O)/C=C/C(=O)OC	i	/	/	total CFTR fold 25 µM=1.3;total CFTR viability 25 µM=82
O=[N+]([O-])c1ccc(NCc2cccc(Cn3ccnc3)c2)nc1	i	1	81
O=S(=O)(Nc1ccc(OCC(F)(F)F)nc1)c1ccc2c(c1)OCCO2	i	0.9	78
CC(C)c1ccccc1OCC(O)CNCCCN(C)c1ccccc1 (centres undefined)	i	0.72	58
NC[C@H]1O[C@H](O[C@H]2C(O[C@@H]3O[C@H](CO)[C@@H](O)[C@H]3O)[C@@H](O)[C@H](N)C[C@@H]2N)[C@H](N)[C@@H](O)[C@@H]1O (some centres undefined)	i	/	/	total CFTR fold 25 µM=1.1;total CFTR viability 25 µM=89
O=C(OCc1nc2cc(Cl)ccc2c(=O)[nH]1)C1(Cc2nc3ccccc3s2)CCCCC1	i	1	101
O=C(Nc1ccccc1)c1ccccc1O	i	/	/	total CFTR fold 25 µM=0.95;total CFTR viability 25 µM=96
CCOC(=O)CSc1nnc(NC(=O)CCNC(=O)OC(C)(C)C)s1	i	0.95	81
O=C(OCc1cn2cc(Cl)ccc2n1)c1ccc2cn[nH]c2c1	i	0.96	86
CSc1ccc([N+](=O)[O-])c(C(=O)OC2CC(C)OC2=O)c1 (centres undefined)	i	1.1	92
C=C(C)CSc1nnc(NCc2ccccc2)s1	i	0.91	90
C=CCn1c(SCC(=O)N(C)Cc2ccsc2)nc2ccsc2c1=O	i	0.91	85
Cc1noc(C(C)C)c1C(=O)NC1CCN(S(C)(=O)=O)CC1	i	1.1	94
CCOC(=O)c1c(NC(=O)CSc2nnnn2C2CC2)sc(CC)c1C	i	1.1	88

3 entries picked at random from those above, as already listed:
SMILES	total CFTR	total CFTR fold 10 ug/mL	total CFTR viability 10 ug/mL	others
O=[N+]([O-])c1ccc(NCc2cccc(Cn3ccnc3)c2)nc1	i	1	81
O=S(=O)(Nc1ccc(OCC(F)(F)F)nc1)c1ccc2c(c1)OCCO2	i	0.9	78
CCOC(=O)c1c(NC(=O)CSc2nnnn2C2CC2)sc(CC)c1C	i	1.1	88

(listing goes on)
SMILES	total CFTR	total CFTR fold 10 ug/mL	total CFTR viability 10 ug/mL	others
CC(C)(O)C(=O)O	i	1.1	101
CC(OC(=O)C12CC3CC(CC(C3)C1)C2)C(=O)NC(C)(C#N)C(C)C (centres undefined)	i	0.91	87
O=c1oc2ccccc2n1CN1CCCC(O)C1 (centres undefined)	i	0.95	85
CN(C)C(=O)c1cc(=O)c2cc(Cl)ccc2o1	i	0.93	99
CC(Sc1nccn1C)c1nnc(-c2ccc([N+](=O)[O-])cc2)o1 (centres undefined)	i	0.99	103
Cc1noc(C)c1CN1CCCc2cc(Cl)ccc21	i	0.98	97
O=C(Nc1cccc(Oc2cnccn2)c1)C12CC3CC(CC(Cl)(C3)C1)C2	i	0.93	82
CN1C[C@H](C(=O)N[C@]2(C)O[C@@]3(O)[C@@H]4CCCN4C(=O)[C@H](Cc4ccccc4)N3C2=O)CC2c3cccc4[nH]cc(c34)C[C@H]21 (some centres undefined)	i	/	/	total CFTR fold 25 µM=1.1;total CFTR viability 25 µM=91
CC(=O)N1C=Cc2ccccc2C1CC(=O)Nc1ccc(F)c(NC(=O)C2CC2)c1 (centres undefined)	i	0.87	77
Cc1noc(C)c1CC(=O)NC(C)(C)C	i	1	101
O=S(=O)(Nc1cc2c(cc1Cl)OCCO2)c1ccc(S(=O)(=O)N2CCCC2)cc1	i	0.94	99
S=c1n(CN2CCN(c3ncccn3)CC2)nc2sc3ccccc3n12	i	1.1	99
CC(C)C1CCC(C(=O)N[C@H](Cc2ccccc2)C(=O)O)CC1 (some centres undefined)	i	/	/	total CFTR fold 25 µM=1.1&0.95;total CFTR viability 25 µM=86&93
COc1cccc(-n2ccnc2SCC(O)COc2ccccc2)c1 (centres undefined)	i	0.97	93
Cn1ncc(C(=O)N2CCCC(CNS(C)(=O)=O)C2)c1-n1cccc1 (centres undefined)	i	1.1	87

Gathered by group, the compounds so far with a nitro group on carbon (three)
SMILES	total CFTR	total CFTR fold 10 ug/mL	total CFTR viability 10 ug/mL	others
O=[N+]([O-])c1ccc(NCc2cccc(Cn3ccnc3)c2)nc1	i	1	81
CSc1ccc([N+](=O)[O-])c(C(=O)OC2CC(C)OC2=O)c1 (centres undefined)	i	1.1	92
CC(Sc1nccn1C)c1nnc(-c2ccc([N+](=O)[O-])cc2)o1 (centres undefined)	i	0.99	103

The main list resumes, starting three compounds before the break.
SMILES	total CFTR	total CFTR fold 10 ug/mL	total CFTR viability 10 ug/mL	others
CC(C)C1CCC(C(=O)N[C@H](Cc2ccccc2)C(=O)O)CC1 (some centres undefined)	i	/	/	total CFTR fold 25 µM=1.1&0.95;total CFTR viability 25 µM=86&93
COc1cccc(-n2ccnc2SCC(O)COc2ccccc2)c1 (centres undefined)	i	0.97	93
Cn1ncc(C(=O)N2CCCC(CNS(C)(=O)=O)C2)c1-n1cccc1 (centres undefined)	i	1.1	87
CS(=O)(=O)Nc1cccc(I)c1	i	1.1	90
Nc1nc(COC(=O)C2=NN(c3ccccc3)C(=O)CC2)nc(Nc2ccccc2)n1	i	1.1	110
CCCCCC(C)N (centres undefined)	i	/	/	total CFTR fold 25 µM=1;total CFTR viability 25 µM=96
COc1cc(/C=C2\Oc3cc(O)ccc3C2=O)cc(Cl)c1O	i	1.1	88
O=C1CCCN1CCCNC(=O)C12CC3CC(CC(C3)C1)C2	i	1.1	102
Cc1sc2ncnc(Sc3nnc(-c4cccnc4)n3C)c2c1C	i	1.1	105
Cc1nc2c(cnn2C(C)C)c(C)c1CCC(=O)NC1CCCC1	i	1	95
COCc1c(C(=O)OCC(=O)N2CCNC2=O)oc2ccccc12	i	1.1	92
CC(c1nc(C(C)(C)C)no1)N1CCN(c2ccccc2F)CC1 (centres undefined)	i	0.89	87
Cc1cc(NC(=O)C(C)N(C)CC23CC4CC(CC(C4)C2)C3)no1 (centres undefined)	i	0.85	81
Cc1noc(C)c1S(=O)(=O)N1CCN(C(=O)c2ccoc2C)CC1	i	1	88
O=c1c2cc([N+](=O)[O-])ccc2ncn1Cc1cc(=O)n2ccccc2n1	i	1.1	104
O=C1c2ccc([N+](=O)[O-])cc2C(=O)N1CN(C1CCCC1)C1CC1	i	0.98	95
O=C(O)[C@H]1c2ccccc2C(=O)N(Cc2ccc(F)cc2)[C@H]1c1ccc(C(F)(F)F)cc1	i	1.1	90
Cc1cc(-n2c(C)cc(C=C3C(=O)c4ccccc4C3=O)c2C)no1	i	1.2	104
CC(Sc1nnc(-c2ccncc2)o1)C(=O)C12CC3CC(CC(C3)C1)C2 (centres undefined)	i	1	80
CC(C)N1C(=O)C(=O)N(CN2CCCC(NC(=O)C3CCCN(C(=O)OC(C)(C)C)C3)C2)C1=O (centres undefined)	i	0.89	86
CN(C)C(=O)Cc1nc(CSc2nnc(-c3ccco3)o2)cs1	i	0.99	94
CCCCCNc1ccc2nnnn2n1	i	0.97	95
CCNC(=O)C1(N)CCCCC1	i	1.1	101
CN(CC(=O)NC(=O)NCCC1=CCCCC1)Cc1ccc(Cl)s1	i	0.92	85
Cn1c(=S)n(CN2CCN(S(=O)(=O)c3ccc(F)cc3)CC2)c2ccccc21	i	1.1	111
COc1ccc(S(=O)(=O)Nc2ccc3c(c2)N(S(N)(=O)=O)CC3)cc1OC	i	1.1	87
O=S(=O)(NC1CC1)c1ccc(NS(=O)(=O)c2ccccc2Br)cc1	i	1.1	119
